Screening data (PubChem BioAssay)
CSC inhib = cancer stem cell inhibition; cancer stem cell-like cells viability, luminescence; inhibition, % at 7.5 µM; 300,000 tested, 1.1% active; AID 2717;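 active means mean at 75% or more and at least half the replicates too; inconclusive means mean and replicates disagree; tested in HMLE shEcad cells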;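 further: 0% = median of negative and 100% = median of positive control wells; the first replicate is given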
eIF4H FP inh = inhibitors of RNA binding by human eIF4H; Q15056; eIF4H fluorescence polarization binding assay; inhibition, % at 35 µM; 290,000 tested, 0.94% active;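 active means 50% or more with normal probe brightness, or confirmed in later tests; inconclusive means above 50% with abnormal brightness, or retests that disagree; inactive means below 50% or failed in later tests; about a fifth of its hits are not listed in these tables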;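 further: calls also rest on retests at 20 µM and on dose response follow-up; 0% = protein and probe with vehicle and 100% = probe without protein; strong numbers were not always called active; many hits fall short of the cut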
Yeast UUG start = modulators of start codon recognition fidelity in yeast; S. cerevisiae UUG-firefly luciferase reporter, luminescence/redox ratio; activity score, % at 18.7 µM; 350,000 tested, 0.13% active; AID 602363;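 active means replicate mean at a twofold rise or more, about +100% in these data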;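 further: firefly luciferase made from a UUG start codon reports start codon fidelity; reporter light over untreated wells divided by growth signal over untreated wells; some hits fall short of that in this replicate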
MT1-MMP act inh = inhibitors of human MT1-MMP activation; 360,000 tested, 0.061% active; P50281; GFP/RFP ratio change, % at 20 µM; HT1080 RFP-PRO-GFP cells, GFP/RFP ratio fluorescence, overnight; percent of plate control window, DMSO zero;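 active means GFP/RFP ratio change of at least 30% with cell ATP level not reduced by more than half and red fluorescence within 50% of control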; further: strong numbers were not always called active
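Material: RFP-PRO-GFP reporter HT1080 cells. Dosing: single-point 20 µM compound, 1% DMSO. Controls: DMSO and RFP-L50D-GFP cell wells. Timing: cells overnight before dosing, compound overnight, 37 °C, 5% CO2. Measure: GFP/RFP fluorescence ratio.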
PABP FP inh = blocks human PABP binding to poly(A) RNA | P11940 | fluorescence polarization | inhibition, % at 35 µM | 290,000 tested, 1% active | AID 2014;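 active means 50% or more with normal probe brightness, or confirmed in later tests; inconclusive means above 50% with abnormal brightness, or retests that disagree; inactive means below 50% or failed in later tests; about a fifth of its hits are not listed in these tables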;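 further: calls also rest on retests at 20 µM and on dose response follow-up; controls were probe without protein and protein plus probe with vehicle; some compounds called inactive have numbers as strong as hits; many hits fall short of the cut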
Target sequence (P11940 whole entry, looked up): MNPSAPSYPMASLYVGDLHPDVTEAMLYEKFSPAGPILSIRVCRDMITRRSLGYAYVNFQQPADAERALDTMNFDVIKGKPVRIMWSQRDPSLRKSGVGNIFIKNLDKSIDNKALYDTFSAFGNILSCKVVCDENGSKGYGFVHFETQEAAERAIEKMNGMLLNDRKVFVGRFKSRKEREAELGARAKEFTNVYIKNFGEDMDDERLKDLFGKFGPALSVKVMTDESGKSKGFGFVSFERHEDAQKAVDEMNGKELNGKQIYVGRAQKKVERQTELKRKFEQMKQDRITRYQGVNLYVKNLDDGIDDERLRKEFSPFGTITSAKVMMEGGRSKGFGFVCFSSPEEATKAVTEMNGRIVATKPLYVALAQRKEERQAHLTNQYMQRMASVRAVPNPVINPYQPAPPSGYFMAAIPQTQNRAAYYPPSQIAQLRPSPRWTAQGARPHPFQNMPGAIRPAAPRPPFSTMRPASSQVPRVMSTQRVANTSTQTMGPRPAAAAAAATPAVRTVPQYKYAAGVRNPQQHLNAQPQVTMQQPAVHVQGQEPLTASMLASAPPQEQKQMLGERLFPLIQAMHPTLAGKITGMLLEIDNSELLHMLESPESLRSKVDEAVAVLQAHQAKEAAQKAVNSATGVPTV
Rce1 inhib = blocks yeast Ras-converting enzyme; Q03530; yeast membranes, quenched prenylated peptide cleavage fluorescence; calls only; 290,000 tested, 0.27% active; AID 2563;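 active means fall in fluorescence gain of 50% or more versus controls, with final raw signal at or below 3038400; inconclusive means same 50% fall but final raw signal above 3038400; inactive means fall in fluorescence gain under 50%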;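 further: plate controls were neutral control wells for no effect and wells lacking membranes for full effect; tested at 10 µM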
Env fusion inh = HIV envelope-mediated fusion inhibition | 360,000 tested, 1.1% active | inhibition, % at 12.3 µM | HeLa-JRFL Env/CEM21 cell fusion, luciferase;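 active means mean replicate inhibition score of at least 50 and every replicate individually at or above 50; inconclusive means only one of the two criteria met; inactive means mean below 50 and not all replicates reaching 50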;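 further: 0% = plate neutral controls and 100% = maraviroc near 300 nM; one replicate is shown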
eIF4H FP inh retest = recorded beside eIF4H FP inh, whose call it bears; inhibition, %; compound at 20 µM; confirmation average;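 mean of two retest wells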
PABP FP inh retest = further read-out of PABP FP inh, marked with its call; inhibition, %; compound at 20 µM; confirmation repeats;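 mean of two retest wells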
MT1-MMP act inh RFP = also measured in MT1-MMP act inh; calls as there; RFP signal change, %; measured here: RFP expression control read;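 0 = vehicle wells; hits needed this value within 50% of zero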
The depositor's hits bear a star; i = inactive; ? = inconclusive; . = not tested or not shown.

SMILES	CSC inhib	eIF4H FP inh	Yeast UUG start	MT1-MMP act inh	MT1-MMP act inh RFP	PABP FP inh	Rce1 inhib	Env fusion inh	others
Cc1c(C)n(C)c2ccc(C(=O)NCCCN3CCCC3)cc12	-7.0	-11.7	-5.1	-2.0	0.1	-9.4	i	-4.2
COc1cc(Cn2c3ccc(NC(=O)NCc4ccc(F)cc4)cc3c(=O)n2C)ccc1F	.	.	-10.9	8.6	-9.1	.	.	-17.5
CCn1c(COc2ccc(C)cc2)nnc1SCc1ccc(C#N)cc1	.	-2.3	-14.3	0.7	0.8	-5.8	i	.
Cn1cc(Br)c(C(=O)NC2CCCCCC2)n1	.	80.0*	-2.8	-2.1	2.3	3.1	i	4.2	eIF4H FP inh retest=91.4*;PABP FP inh retest=23.3
CCOC(=O)C1Nc2c(F)cc(C)cc2C2c3ccccc3CC12 (stereo unspecified)	10.0	.	-12.4	-5.8	-9.6	.	i	-36.1
Cn1c(C(=O)N2CCCC(C(=O)O)C2)cc2sccc21 (stereo unspecified)	11.3	-5.2	-14.9	3.8	1.9	6.3	i	.
O=C(Oc1ccccc1C(=O)Nc1ccccc1)c1ccc(Br)c([N+](=O)[O-])c1	33.1	-10.8	.	-1.1	-2.1	-9.8	i	3.2
Cc1oc(-c2ccccc2Cl)nc1CN1CCCCC1CO (stereo unspecified)	-1.1	4.1	.	-2.9	-4.5	2.3	.	-144.9
CC1CCN(CC(O)COC2CC(C)CC(C)(C)C2)CC1 (stereo unspecified)	39.8	.	-6.4	1.5	-3.9	.	i	6.5
CCc1nc2sc(C#N)c(N)c2c2c1CCCC2	9.8	.	-12.7	-0.5	-1.9	.	i	.
NC(=O)c1cnn2c(C(F)(F)F)cc(-c3ccc(F)cc3)nc12	-9.4	0.1	11.7	7.4	-1.6	2.4	i	-440.3
Cc1c(NC(=O)CSc2nnc(C(C)Oc3ccc(Cl)cc3)n2-c2ccccc2)c(=O)n(-c2ccccc2)n1C (stereo unspecified)	-24.9	-1.9	.	1.4	0.4	-0.6	i	36.4
Cc1cccc(Oc2ccc(N)cc2)c1	14.3	-5.9	.	-8.9	-5.0	5.6	i	-3.7
O=C(Nc1ccccc1Cl)c1cc(S(=O)(=O)N2CCOCC2)cs1	-10.3	4.8	-7.4	2.6	3.4	-10.6	i	-40.1
Cc1c(NC(=O)c2cc(-c3cccs3)nc3ccccc23)c(=O)n(-c2ccccc2)n1C	22.0	-4.6	.	-9.2	-3.3	-4.7	i	-4.8
O=C(CN1CCN(c2cccc(Cl)c2)CC1)Nc1ccc(S(=O)(=O)N2CCOCC2)cc1	10.2	30.1	5.7	-3.0	-10.5	1.5	i	.
Cn1c(NCC2CCCO2)nc2c1c(=O)n(Cc1ccccc1)c(=O)n2C (stereo unspecified)	-20.7	8.5	2.3	2.9	2.2	1.7	i	.
COc1ccc(CC2(CO)CCN(S(=O)(=O)c3c(C)nn(C)c3Cl)CC2)cc1	-1.0	-0.4	.	-1.6	-3.5	-0.1	i	6.7
COCCN(C(=O)CSc1nnc(-c2ccccc2OC)o1)c1c(N)n(CC(C)C)c(=O)[nH]c1=O	-12.1	.	.	-4.5	2.1	.	i	-17.0
CCC1CCCCN1C(=O)Cn1c(C(=O)OC)cc2sc(Cl)cc21 (stereo unspecified)	3.3	-0.8	-5.8	-4.0	-3.8	1.0	i	.
Cc1ccc(CNC(=O)c2ccc(N3CCC4(CC3)CC(c3cccc(Br)c3)=NO4)c(NC(=O)c3ccc(Br)cc3)c2)cc1	.	.	-7.8	-0.7	4.5	.	.	11.4
CCc1ccc([C@@H]2C[C@H]3[C@@H](CN2S(=O)(=O)c2ccc(C)cc2)C(=O)C[C@@H](c2ccc(C)cc2)N3S(=O)(=O)c2ccc(C)cc2)cc1	.	.	-17.9	-0.7	-3.1	.	.	-6.9
CCC(Sc1nncn1C)C(=O)Nc1ccccc1OC (stereo unspecified)	3.4	-4.8	-13.6	1.4	4.5	6.0	i	-13.2
CCc1n[nH]c(=S)n1/N=C/c1cccc2ccccc12	-2.9	5.8	8.5	-0.5	-2.7	-7.4	i	?
O=C(CCCn1nnc2ccccc2c1=O)N[C@@H](Cc1ccccc1)C(=O)O	-7.2	13.0	-2.3	1.1	2.7	9.0	i	7.6

Structural class, the entries above containing two or more sulfur atoms (2)
SMILES	CSC inhib	eIF4H FP inh	Yeast UUG start	MT1-MMP act inh	MT1-MMP act inh RFP	PABP FP inh	Rce1 inhib	Env fusion inh	others
O=C(Nc1ccccc1Cl)c1cc(S(=O)(=O)N2CCOCC2)cs1	-10.3	4.8	-7.4	2.6	3.4	-10.6	i	-40.1
CCc1ccc([C@@H]2C[C@H]3[C@@H](CN2S(=O)(=O)c2ccc(C)cc2)C(=O)C[C@@H](c2ccc(C)cc2)N3S(=O)(=O)c2ccc(C)cc2)cc1	.	.	-17.9	-0.7	-3.1	.	.	-6.9

Continued.
SMILES	CSC inhib	eIF4H FP inh	Yeast UUG start	MT1-MMP act inh	MT1-MMP act inh RFP	PABP FP inh	Rce1 inhib	Env fusion inh	others
Cn1cc(-c2cccc3nncn23)cn1	.	.	-13.3	3.2	5.7	.	.	?
O=C(Nc1cccc(NC(=O)c2ccco2)c1)c1ccc2c(c1)OCO2	2.4	-2.1	13.9	0.1	2.0	-3.2	i	.
O=C(O)CCC(=O)c1ccc2c(c1)OCCCO2	-0.6	-9.9	3.0	-1.9	-4.5	-10.3	i	-23.6
O=C(Nc1ccc(F)cc1F)c1ccc(S(=O)(=O)NCc2ccco2)cc1	-2.2	.	-14.3	1.5	-2.5	.	.	.
O=C(O)CCSc1ccccn1	12.0	-2.9	.	-0.8	2.8	0.4	i	6.3
NC(=S)Nc1ccccc1Br	3.5	1.6	-39.5	1.2	4.1	-5.4	i	-9.9
Cc1ccc(C(=O)OCC(=O)Nc2ccc3[nH]c(=O)[nH]c3c2)cc1[N+](=O)[O-]	-0.9	-5.2	-13.7	0.2	-0.8	-8.6	i	2.7
COc1ccc(CNC(=O)CCN2C(=O)c3ccccc3C2=O)cc1OC	0.1	3.6	-17.6	1.4	2.7	11.5	i	-0.3
O=C(NCc1ccco1)c1ccc(Cn2c(=O)c3sccc3n(Cc3ccc(F)cc3)c2=O)cc1	14.2	0.2	-7.9	-3.7	-2.2	-11.8	i	78.1*
O=C(N/N=C/c1ccncc1)c1ccc(NS(=O)(=O)c2cccs2)cc1	16.3	-3.4	.	2.9	2.2	-10.2	i	13.0
CCOC(=O)N1CCC(N2C(=O)c3ccc(C(=O)Nc4ccc(F)cc4F)cc3C2=O)CC1	-2.4	7.3	-9.0	1.5	2.1	4.4	i	.
CCOC(=O)c1cc(=O)n2c(nc3ccccc32)[nH]1	4.1	.	7.2	3.8	8.9	.	i	-17.0
CN1CCNC(=O)C1CC(=O)NCC1(c2ccccc2)CCCCC1 (stereo unspecified)	-16.3	0.7	.	-0.7	0.6	-8.8	i	-3.4
C=CCN(CC=C)C(=O)c1ccncc1	5.5	13.1	-16.0	-3.0	2.8	-3.5	i	-154.0
C[C@]12c3[nH]c4cc(-c5ccco5)ccc4c3CCN1C(=O)[C@@H](CC(=O)NCCCn1ccnc1)C[C@@H]2C(=O)N1CCCCC1	.	.	-1.2	-1.5	1.9	.	.	-0.4
Cc1ccc(CNS(=O)(=O)c2c(C)[nH]c(C)c2C(=O)N2CCCCC2)o1	-3.4	5.3	4.0	0.0	1.1	1.1	i	-4.1
CCOc1ccc2nc(NC(=O)CSc3nnc(-c4ccncc4)n3CC3CCCO3)sc2c1 (stereo unspecified)	9.7	2.0	-0.6	-3.5	-3.2	-8.3	i	-431.4
CC(=O)c1ccc(NC(=O)C(C)N(C)CC(=O)Nc2ccc(Cl)cc2)cc1 (stereo unspecified)	-1.1	-2.2	-6.4	1.8	-1.0	-2.7	i	-17.7
COCC1CCN(C(=O)c2cc(COc3cncc(Cl)c3)on2)C1 (stereo unspecified)	-0.5	-1.8	-11.9	1.8	-5.1	12.1	i	-0.9
CC(C)CNC(=O)c1cccc(NC(=O)C(C)Oc2ccccc2)c1 (stereo unspecified)	-10.3	-0.9	.	-1.1	-2.9	-4.9	i	-11.9
COc1cccc(/C=C2\NC(=O)NC2=O)c1O	0.5	-2.5	-12.7	-4.2	-2.1	15.4	i	-6.7
O=C(CN1C(=O)c2ccccc2C1=O)Nc1ccc(Cl)cn1	.	-2.6	.	-0.3	3.4	-8.2	i	-11.5
Cc1ccc(-n2c(-c3ccco3)nc3c(cnn3-c3ccccc3C)c2=O)cc1	-10.4	-5.2	-13.1	-3.0	-7.0	-3.0	i	14.3
COc1ccc(C(C)=O)cc1CSc1ccc(S(=O)(=O)N2CCOCC2)cn1	-9.2	.	-10.2	-0.7	-5.5	.	.	-0.8
CCOC(=O)c1ccccc1NC(=O)COC(=O)C(CC)Oc1ccccc1 (stereo unspecified)	.	.	-8.1	4.9	8.0	.	.	6.3
New compounds follow.
SMILES	CSC inhib	eIF4H FP inh	Yeast UUG start	MT1-MMP act inh	MT1-MMP act inh RFP	PABP FP inh	Rce1 inhib	Env fusion inh	others
CCC(=O)N1CCC1(C)C(=O)Nc1ccc(F)cc1 (stereo unspecified)	.	.	-8.9	34.1*	46.4*	.	.	-1.8
Cc1ccc2ccccc2c1C(O)c1ncc(-c2ccccc2)[nH]1 (stereo unspecified)	.	.	-11.2	-5.4	-3.1	.	.	-104.2
CCc1nnc(NC(=O)/C=C/c2cccs2)s1	9.4	3.9	-12.5	8.2	-5.2	-12.4	i	-31.0
Cc1cc(OCC(=O)OCC(=O)N2c3ccccc3NC(=O)C2(C)C)ccc1Cl	.	.	2.3	1.1	2.3	.	.	4.9
Nc1ccc(C(=O)OCC(=O)Nc2cccc(S(=O)(=O)NC3=NCCCCC3)c2)cc1[N+](=O)[O-]	-13.1	.	0.8	-1.9	1.4	.	.	0.3
S=C(NCc1ccc2c(c1)OCO2)Nc1ccc(-c2nc3ccccc3[nH]2)cc1	26.6	8.3	.	8.9	3.2	16.7	i	23.5
Cc1ccc(CSC2=NCCN2C(=O)c2ccc([N+](=O)[O-])cc2)cc1	3.5	0.6	.	6.2	2.0	-9.1	i	-4.9
COc1ccc(/C=C/C(=O)NC2CC3CCC2C3)cc1 (stereo unspecified)	-8.6	-1.3	-6.7	-0.3	3.0	1.2	i	1.0
O=C(CSc1nnc(-c2ccc(O)cc2)o1)Nc1ccc2c(c1)OCCO2	0.2	-5.3	-14.3	3.1	-1.0	-3.6	i	.
NNC(=O)C(=O)/C=C1\NC2(CCCC2)Cc2ccccc21	3.3	19.2	-18.3	2.9	2.9	-6.8	i	-15.2
CN(C(=O)CN1CCN(c2ccc([N+](=O)[O-])cn2)CC1)c1ccccc1	-10.8	-2.3	-17.4	4.9	-6.3	0.3	i	.
CCOc1ccccc1CN1CCNC(=O)C1CC(=O)NCCCn1cccn1 (stereo unspecified)	-3.1	26.2	-15.4	-1.4	0.9	9.9	i	1.8
O=C(NC1CC1)c1scc2c1OCCO2	-9.1	-7.6	-23.0	-4.6	-2.1	9.9	i	.
O=c1[nH]c2ccccc2nc1-c1ccc(Cl)cc1	-2.8	-6.1	-15.8	3.2	0.0	-0.3	i	-48.8
CCCOc1ccc(/C=N/NC(=O)CN2CCCCC2)cc1OCC	-6.6	1.4	-17.0	-0.9	-2.4	-6.4	i	-6.0
CCOc1cc(N2CCOCC2)c(OCC)cc1NC(=O)CN1C(=O)NC2(CCc3ccccc32)C1=O (stereo unspecified)	4.5	-4.6	23.4	-2.7	0.4	-2.7	i	-28.7
Cc1nc(Nc2ccccc2)sc1C(=O)Nc1ccccc1	11.7	-5.0	.	1.6	-1.1	-2.3	i	-37.5
